# TRPML1 inh = inhibitors of human TRPML1 channel | activity change, negative = inhibition, % (no concentration beside the values) | Q9GZU1 | hit rate 0.02% among 390,000 | TRPML1-inducible cells, Ca2+ dye fluorescence, FDSS; hits give low values; inhibition of EC80 agonist-evoked calcium signal; in the data active means activity change below about -50%; inconclusive means about -30% to -50%; inactive means above about -30%;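 further: stimulus is agonist 54-4 at its EC80 concentration; on the % scale 0 is the no-effect control and ±100 the full control effect; compound concentration not given in the record; the text of the record puts the active cut at -80%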
# Target sequence (Q9GZU1 whole entry, looked up): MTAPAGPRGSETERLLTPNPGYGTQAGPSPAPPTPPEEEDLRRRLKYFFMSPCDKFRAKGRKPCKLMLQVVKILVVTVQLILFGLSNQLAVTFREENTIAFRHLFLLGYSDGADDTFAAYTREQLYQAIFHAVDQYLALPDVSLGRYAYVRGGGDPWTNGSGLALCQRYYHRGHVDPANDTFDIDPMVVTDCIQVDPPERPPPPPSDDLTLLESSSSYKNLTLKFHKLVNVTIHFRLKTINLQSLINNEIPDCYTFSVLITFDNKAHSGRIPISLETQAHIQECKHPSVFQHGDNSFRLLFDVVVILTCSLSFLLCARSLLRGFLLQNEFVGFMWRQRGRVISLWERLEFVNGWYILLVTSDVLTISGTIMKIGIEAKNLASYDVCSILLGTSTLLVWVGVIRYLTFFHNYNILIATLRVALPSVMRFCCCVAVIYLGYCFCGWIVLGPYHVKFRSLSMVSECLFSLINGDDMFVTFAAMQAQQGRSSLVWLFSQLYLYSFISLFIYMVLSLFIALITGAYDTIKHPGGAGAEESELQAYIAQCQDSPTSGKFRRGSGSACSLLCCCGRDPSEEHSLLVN
#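 Tet-induced TRPML1-DL cells loaded with Ca8 no-wash calcium dye were read kinetically on FDSS. Compound addition was followed by EC80 agonist 54-4 (4 uM final); inhibition was read over 110 s.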
# D2 agonist = agonists of human D2 dopamine receptor (beta-arrestin); DiscoveRx PathHunter D2 beta-arrestin, luminescence, 90 min; 100% = 57 uM dopamine signal; activation, % (no concentration beside the values); hit rate 0.084% among 360,000; AID 624465; in the data active = activation above about 40%; inconclusive = about 15% to 40%; inactive = below about 15%; further: compound concentration not given in the record; the text of the record calls up to 30% inactive
# Target sequence (P14416 whole entry, looked up): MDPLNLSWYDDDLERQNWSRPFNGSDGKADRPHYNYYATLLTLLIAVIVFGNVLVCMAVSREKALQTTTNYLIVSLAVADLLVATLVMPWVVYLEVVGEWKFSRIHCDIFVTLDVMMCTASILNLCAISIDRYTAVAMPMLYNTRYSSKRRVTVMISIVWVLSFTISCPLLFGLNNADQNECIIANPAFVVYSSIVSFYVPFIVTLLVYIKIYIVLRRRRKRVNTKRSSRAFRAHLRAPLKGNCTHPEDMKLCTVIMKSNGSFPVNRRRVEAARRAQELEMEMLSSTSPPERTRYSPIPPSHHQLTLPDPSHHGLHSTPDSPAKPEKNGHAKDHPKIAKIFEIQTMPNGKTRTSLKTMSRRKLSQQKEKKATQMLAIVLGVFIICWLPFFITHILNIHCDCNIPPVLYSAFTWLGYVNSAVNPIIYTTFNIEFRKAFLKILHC
#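 Agonist mode: compounds alone added to overnight-plated D2 PathHunter cells for 90 min at 37 C, with 57 uM final dopamine (EC100) defining full response. Beta-arrestin recruitment detected by chemiluminescent reagent, read after 1 h at ambient temperature.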
# PINK1 modulator = modulators of PINK1 expression; PINK1 immunofluorescence, high-content cytometry, 24 h; hit rate 0.2% among 410,000; AID 624263; Potency, µM (series often up to 76.6 µM), inactives show top-dose activation (PINK1 increase), actives largely listed as activators; active = well fitted activation curve with a large enough effect; inconclusive = small, poorly fitted or top-dose-only effect; inactive = flat fitted curve, though single readings scatter; cell line not stated here;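 further: potency means the concentration at half of the fitted maximal effect; % of control where 0% means no effect; nearly all actives have a fitted effect of over 65% in size; a mitochondrial uncoupler was the plate control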
#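 PINK1 protein level read as immunofluorescence by microplate cytometer in a fixed, stained stable cell line after 24 h exposure to five compound concentrations, with CCCP as control.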
# Six1-Eya2 blk = blocks human Six1 binding to Eya2 | Q15475+O00167 | AlphaScreen GST-Six1/His-Eya2 binding, biochemical; hits give low values; control for the full effect not named in the record | activity change, % (concentration not given with the values) | hit rate 0.56% among 360,000 | AID 651725; in the data active = activity change below about -65%; inconclusive = about -30% to -65%; inactive = above about -30%; further: on the % scale 0 is the no-effect control and ±100 the full control effect
#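 Six1/Eya2 binding was read as AlphaScreen signal after compounds were pinned into GST-Six1 plus His-tagged Eya2 (5X stock 250/500 nM) in pH 8.0 Tris/NaCl/TCEP buffer, beads added, then incubated 1 h, 37 C, dark.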
# TRPML1 ag = human mucolipin-1 channel agonism | Q9GZU1 | TRPML1-expressing cells, Ca2+ dye fluorescence, FDSS; host cell line not named in the record; reference of the full effect not given here | activation, % (concentration not given with the values) | hit rate 0.12% among 410,000 | AID 624414; in the data active = activation above about 50%; inconclusive = about 30% to 50%; inactive = below about 30%; further: 0% is about no effect; the text of the record puts the active cut at 80%
#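 Agonist activity was taken from a 110 s kinetic Ca2+ dye read on the FDSS after pinning compounds onto TRPML1-DL cells. The cells were seeded at 1,500/well with Tet inducer, incubated about 16 h, then dye-loaded at room temperature.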
# CtBP-E1A inh = blocks the CtBP interaction with E1A | AlphaScreen GST-E1A/His-CtBP binding, 1536-well; hits give low values; control for the full effect not named in the record | activity change, % (test concentration not listed) | AID 651724 | hit rate 0.49% among 340,000; in the data active means activity change below about -65%; inconclusive means about -30% to -65%; inactive means above about -30%; further: on the % scale 0 is the no-effect control and ±100 the full control effect; compound concentration not given in the record
#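 Protein mix (5X: 125 nM each GST-E1A, His-CtBP) was incubated with pinned compound 2 h at 37 deg C in dark, in 50 mM Tris pH 8.0 buffer with 300 mM NaCl. Glutathione donor and nickel acceptor beads followed; AlphaScreen signal read after 1 h.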
# * hit, by the source's call; ? = inconclusive; nt = not tested or not shown; & = joins results of further samples; [ ] = dose if it differs, or a comment. Only part of the results is shown; the hit share may differ from the screen's.
SMILES,TRPML1 inh,D2 agonist,PINK1 modulator,Six1-Eya2 blk,TRPML1 ag,CtBP-E1A inh
COC(=O)C1=C(c2ccc(-c3ccccc3)c(F)c2)C[C@@H]2CC[C@H]1N2C(=O)NC1CC1,-8,-7.0,5.4%,-11,-0.7,1
Fc1ccc(NC(=S)N2Cc3ccccc3-n3nncc3C2)cc1,12,-7.9,-0.1%,-1,-0.2,0
O=C1NC(=O)C(=Cc2ccsc2)C(=O)N1,-8,7.4,0.1%,2,-0.5,8
CCCCCCOc1ccc(CN2CCN(CC)CC2)cc1,5,1.5,0.5%[38.3 µM],0,1.2,-11
CN(C)C(=O)Oc1ccc(OCc2cccc[n+]2C)cc1,19,-2.1,3.7%,0,0.2,3
Cc1cc(C)c(C)c(C(O)(C(=O)O)c2ccccc2)c1 (stereo not drawn),-12,-2.4,0.9%,10,-0.1,-2
CCN1CCN(c2cn[nH]c(=O)c2Cl)CC1,3,-2.9,-0.4%,1,-0.4,7
CCOc1ccc(N2C(=O)/C(=C/c3ccc(C)o3)C(=O)NC2=S)cc1,nt,-3.0,0.7%,-7,nt,nt
CC(=O)O[C@H]1CCC2C3CCC4=CC(=O)CCC4=C3C=C[C@@]21C (stereo partly drawn),-1,0.8,-0.8%,1,-1.4,4
COC(=O)C1=C(c2ccc(Cl)c(C(F)(F)F)c2)C[C@@H]2CC[C@H]1N2C(=O)N1CCOCC1,41,-0.2,3.2%,-4,1.3,2
CCCC(=O)c1cc(CP(=O)(OCC)OCC)oc1C,-1,-5.0,-1.3%,0,1.1,-15
Cc1ccc(NC(=O)CN2C(=O)CN=C(c3ccccc3)c3ccccc32)c(C)c1,4,nt,0.7%,nt,2.1,nt
O=C1NCN(c2ccccc2)C12CCN(C(CCc1ccccc1)c1nnnn1Cc1ccccc1)CC2 (stereo not drawn),nt,-5.5,-0.6%,-12,0.0,-20
CC1(C)CC[C@]2(C)CC[C@]3(C)C4C[C@@H]5OO[C@@]6(O5)C(CCCC6(C)C)[C@]4(C)CC[C@@]3(C)C2C1 (stereo partly drawn),nt,-2.2,0.7%,3,nt,3
O=c1ccc2c(O)c3ccoc3cc2o1,nt,-7.3,0.1%,17,nt,26
CCC(=O)c1c(O)n(C2CCCCCC2)c(=O)[nH]c1=O,-7,-2.0,-2.0%,11,0.0,6
CC1CC(OC(=O)c2ccccc2)CC(C)N1C (stereo not drawn),-5,-1.8,-1.2%,-10,-0.7,-8
O=C1OC(c2ccc(Br)cc2)=N/C1=C\N1CC2CC(C1)c1cccc(=O)n1C2 (stereo not drawn),5,-4.0,3.1%,-8,-0.4,nt
FC(F)(F)c1ccccc1NC1=NCCCS1,7,-3.4,0.3%,7,0.5,2
O=c1[nH]c(=O)n(-c2cccc(F)c2)c(O)c1/C=C1\C=Nc2ccccc21,22,-0.4,9.1%,0,0.6,8
COC(=O)[C@@H]1C(OC(=O)c2ccccc2)CC2CCC1N2C (stereo partly drawn),2,-3.7,0.2%,2,0.4,-10
CCOC(=O)[C@]12Cc3cc(C)ccc3[C@H]1N(CCC(=O)OC)C(=O)c1cc(OC)ccc12,nt,nt,-0.3%,-13,-1.0,-9
O=[N+]([O-])c1ccc(N2CCOCC2)c2ccncc12,-9,-0.2,-2.1%,-2,0.1,-2
COc1cccc(CNCCc2ccc(F)cc2)c1,3,2.2,0.6%,3,0.6,nt
CNP1(NC)=NC(C(F)(F)F)=NC(C(F)(F)F)=N1,6,-1.0,nt,-10,0.4,-6

# Of the compounds above, these have a furan ring, fused or not:
SMILES,TRPML1 inh,D2 agonist,PINK1 modulator,Six1-Eya2 blk,TRPML1 ag,CtBP-E1A inh
CCOc1ccc(N2C(=O)/C(=C/c3ccc(C)o3)C(=O)NC2=S)cc1,nt,-3.0,0.7%,-7,nt,nt
CCCC(=O)c1cc(CP(=O)(OCC)OCC)oc1C,-1,-5.0,-1.3%,0,1.1,-15
O=c1ccc2c(O)c3ccoc3cc2o1,nt,-7.3,0.1%,17,nt,26

# Going on with the list:
SMILES,TRPML1 inh,D2 agonist,PINK1 modulator,Six1-Eya2 blk,TRPML1 ag,CtBP-E1A inh
Cc1oc(-c2ccccc2)nc1CN1C(=O)CN=C(c2ccccc2)c2ccccc21,8,-2.3,0.7%,0,-1.4,-1
O=C(C1CCC(=O)N1C1CCCCC1)N1CCC2(CC1)OCCO2 (stereo not drawn),0,-0.1,1.9%[38.3 µM],3,-0.4,2
O=C(Nc1nc2ccccc2s1)c1cccn(Cc2ccccc2)c1=O,21,nt,8.8%,nt,-0.8,nt
Cc1ccc(S(=O)(=O)N2Cc3cc(N4CCOCC4)ccc3-n3nncc3C2)cc1,nt,-3.7,0.7%,10,-0.5,5
O=C(O)[C@@H]1C[C@H]1[C@@H](NP(=O)(c1ccccc1)c1ccccc1)c1ccccc1,5,0.7,3.9%,2,-0.1,3
O=C(Nc1cc(Cl)cc(Cl)c1)N1Cc2ccccc2-n2nncc2C1,-3,-6.6,3.1%,-6,-0.8,5
Fc1ccc(C2=CCN(C(c3ccc(Cl)cc3)c3nnnn3Cc3ccccc3)CC2)cc1 (stereo not drawn),-1,-3.1,0.7%,-3,-0.8,2
O=C1OC(c2ccc(Cl)cc2)=N/C1=C\N1CC2CC(C1)c1cccc(=O)n1C2 (stereo not drawn),7,-2.7,-0.9%,-9,-0.4,nt
COC(=O)C1=C(c2cccc(C#N)c2)C[C@@H]2CC[C@H]1N2C(=O)NCc1ccc(F)cc1,-18,-7.4,0.8%,-3,-0.8,5
CCCCn1c(O)c(/C=C/C=Nc2ccccc2)c(=O)[nH]c1=O,-2,-1.4,0.6%,0,6.3,0
COC(=O)CC(NC(=S)N1CC2C[C@@H](C1)Cn1c2cccc1=O)C(=O)OC (stereo partly drawn),-4,-2.7,-1.5%,1,2.5,9
CC1(C)CC(=O)C(C2(O)C(=O)NC(=O)NC2=O)=C(O)C1,15,1.6,?,5,0.8,7
COc1ccc(C(=O)CC2(CC(=O)c3ccc(OC)cc3)C(=O)N(C)C(=O)N(C)C2=O)cc1,-10,-1.8,3.9%,4,1.8,8
CCCCCCCCCCCCCCCC[N+](C)(C)C,-2,-9.8,-1.1%,11,-0.1,8
O=C(Nc1cccc2ccccc12)N1Cc2ccccc2-n2nncc2C1,-7,-6.2,2.0%,0,-0.6,5
CCOC(=O)c1c(N)n(CCN2CCCCC2)c2nc3ccccc3nc12,1,0.3,nt,-17,-0.5,9
COC(=O)C1=C(c2ccc(OCc3ccccc3)cc2)C[C@@H]2CC[C@H]1N2C(=O)NCc1cccc(F)c1,4,-0.7,-0.4%,-1,4.5,-7
O=P(Nc1ccccc1)(Oc1ccccc1)Oc1ccccc1,1,0.5,0.6%,9,3.6,nt
COc1ccc(/C=C2/C(=O)NC(=S)N(C3CC3)C2=O)cc1CN1C(=O)c2ccccc2C1=O,-15,-5.3,?,2,0.1,-6
COc1ccc(CCn2c(O)c(C=NCc3cccnc3)c(=O)[nH]c2=O)cc1OC,-16,1.3,1.8%,-1,-1.1,3
C[n+]1ccc(-c2ccncc2)cc1,4,-1.5,13%[38.3 µM],3,0.1,2
Oc1ccccc1-[n+]1c(-c2ccccc2)cc(-c2ccccc2)cc1-c1ccccc1,6,3.9,nt,-2,3.5,-5
N#CC(C#N)=Cc1ccc(N2CCCC2)cc1,-5,-13,0.6%,3,8.4,-2
CCCCn1c(O)c(C(CC)=NCc2cccnc2)c(=O)[nH]c1=O,9,0.8,3.3%[38.3 µM],-2,-0.4,0
O=C1NC(=O)C2(Cc3ccccc3N3CCOCC32)C(=O)N1c1ccccc1 (stereo not drawn),4,-4.1,13%[38.3 µM],4,0.3,5

# An excerpt of these results, with tabs:
SMILES	TRPML1 inh	D2 agonist	PINK1 modulator	Six1-Eya2 blk	TRPML1 ag	CtBP-E1A inh
O=C(Nc1nc2ccccc2s1)c1cccn(Cc2ccccc2)c1=O	21	nt	8.8%	nt	-0.8	nt
Oc1ccccc1-[n+]1c(-c2ccccc2)cc(-c2ccccc2)cc1-c1ccccc1	6	3.9	nt	-2	3.5	-5

# Carrying on:
SMILES,TRPML1 inh,D2 agonist,PINK1 modulator,Six1-Eya2 blk,TRPML1 ag,CtBP-E1A inh
O=c1c2ccccc2nc(/C=C/c2ccccc2F)n1-c1ccccc1O,-7,5.8,-2.2%,?,3.4,?
CCC(C)C12CN3CCN(CC(C)(C3)C1=O)C2 (stereo not drawn),38,0.0,-2.8%,10,1.2,-1
COc1ccccc1N1CCN(Cc2ccc3c(c2)OCO3)CC1,-8,6.8,0.3%,-23,-0.7,-1
CCCC12CN3CN(C1)CC(CCC)(C3)C2O (stereo not drawn),9,-2.3,-1.6%,-2,-0.9,-1
O=C(Nc1cc(C(F)(F)F)cc(C(F)(F)F)c1)c1cccn(Cc2ccccc2Cl)c1=O,-5,nt,-2.1%,nt,2.9,nt
CC[C@H]1CN(C)CCc2c([nH]c3ccccc23)C(=O)C[C@@H]1/C(=C\OC)C(=O)OC,nt,-4.7,-0.8%,-27,nt,-16
O=C(Cc1ccccc1)N1CCN(Cc2ccc(Cl)cc2)CC1,-1,-5.9,-0.9%,-9,-0.5,1
O=C(O)c1nn(Cc2ccc(Cl)cc2Cl)c2ccccc12,6,-1.8,0.2%&-0.3%,32,-0.4&0.4,-23
O=c1[nH]c(=O)n(-c2ccc(F)cc2)c(O)c1C=Nc1ccccc1N1CCCC1,-16,-3.3,35µM*,0,2.1,-2
COc1cc2c(cc1OC)-c1c(OC)c(OC)cc3c1[C@H](C2)N(C)CC3,1,7.8,-0.5%,?,0.0,?
Cc1ccsc1C(=O)C1CCCN(Cc2cccc(-n3cccn3)c2)C1 (stereo not drawn),-18,-4.8,1.7%,-10,0.6,-12
CN1C(=O)N(C)C(=O)C2(Cc3c(nc4ccccn4c3=O)N3CCc4ccccc4C32)C1=O (stereo not drawn),-19,-2.1,4.2%,-3,3.3,5
COc1ccc(NC2=NCC(C)S2)cc1 (stereo not drawn),-8,1.3,3.1%,-2,-0.1,-6
COc1cc(OC)c2c(c1)OCC1CON(C)C21 (stereo not drawn),-2,0.7,8.0%,15,-0.8,-7
CCCCc1ccc(C(=O)O)nc1,9,-5.6,-0.7%,-87*,1.0,-68*
O=C1NC(=O)N(c2ccc(F)cc2)C(=O)/C1=C/c1ccc(N2CCOCC2)cc1,-2,-2.7,0.5%,1,1.1,19
CC(=NCc1ccco1)c1c(O)n(-c2ccccc2C)c(=O)[nH]c1=O,0,-4.4,1.2%,-5,-0.1,-12

# Only D2 agonist, TRPML1 ag and TRPML1 inh, for 5 of the compounds above:
smiles | D2 agonist | TRPML1 ag | TRPML1 inh
O=C(Cc1ccccc1)N1CCN(Cc2ccc(Cl)cc2)CC1 | -5.9 | -0.5 | -1
O=C(O)c1nn(Cc2ccc(Cl)cc2Cl)c2ccccc12 | -1.8 | -0.4&0.4 | 6
O=c1[nH]c(=O)n(-c2ccc(F)cc2)c(O)c1C=Nc1ccccc1N1CCCC1 | -3.3 | 2.1 | -16
COc1cc2c(cc1OC)-c1c(OC)c(OC)cc3c1[C@H](C2)N(C)CC3 | 7.8 | 0.0 | 1
Cc1ccsc1C(=O)C1CCCN(Cc2cccc(-n3cccn3)c2)C1 (stereo not drawn) | -4.8 | 0.6 | -18
